ALR H2O2 inh = inhibitors of human sulfhydryl oxidase ALR; P55789; purified ALR, DTT oxidation, H2O2 HRP-luminol luminescence; inhibition, % (no concentration beside the values); actives 3.8% (n = 290,000); AID 485317;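 active = mean and each replicate at 75% or more; inconclusive = only one of the two met; inactive = neither met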;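 also: stock transfer was 7.5 nL into about 7.5 µL; 0% = neutral wells and 100% = wells with inactivated enzyme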
Target sequence (P55789 whole entry, looked up): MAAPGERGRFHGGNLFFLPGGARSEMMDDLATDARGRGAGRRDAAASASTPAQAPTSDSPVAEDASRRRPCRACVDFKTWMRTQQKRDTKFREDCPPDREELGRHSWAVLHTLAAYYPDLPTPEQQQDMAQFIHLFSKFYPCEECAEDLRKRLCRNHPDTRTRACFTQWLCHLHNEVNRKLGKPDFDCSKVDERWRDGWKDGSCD
FGF22 binding = binders of recombinant human FGF22 by thermal shift. Q9HCT0. SYPRO orange fluorescence; percent of sucrose octasulfate shift, DMSO zero. calls only at 9.99 µM. actives 1.5% (n = 340,000);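 active = melting point raised past a set limit in the mean and every replicate; inconclusive = no clear call; three in four hits are not shown here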
Target sequence (Q9HCT0 whole entry, looked up): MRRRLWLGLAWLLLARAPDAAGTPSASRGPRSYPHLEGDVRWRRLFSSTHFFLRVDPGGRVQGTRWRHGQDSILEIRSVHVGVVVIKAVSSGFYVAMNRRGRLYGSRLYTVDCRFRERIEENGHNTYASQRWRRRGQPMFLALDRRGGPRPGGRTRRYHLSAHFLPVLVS
HNF4A DNA FP = change in binding of human HNF4 alpha to DNA | P41235 | HNF4a-FITC DNA binding, fluorescence polarization, 1 h | activity change, % at 10 µM | actives 0.3% (n = 360,000); in the data active = activity change above about 30%, passing the limit was not always enough;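 also: controls were the assay level and a saturating level of protein; the project sought stronger binding though the title names inhibitors; some compounds called inactive have numbers as strong as hits; positive values seem to mean higher polarization but the record does not say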
Target sequence (P41235 whole entry, looked up): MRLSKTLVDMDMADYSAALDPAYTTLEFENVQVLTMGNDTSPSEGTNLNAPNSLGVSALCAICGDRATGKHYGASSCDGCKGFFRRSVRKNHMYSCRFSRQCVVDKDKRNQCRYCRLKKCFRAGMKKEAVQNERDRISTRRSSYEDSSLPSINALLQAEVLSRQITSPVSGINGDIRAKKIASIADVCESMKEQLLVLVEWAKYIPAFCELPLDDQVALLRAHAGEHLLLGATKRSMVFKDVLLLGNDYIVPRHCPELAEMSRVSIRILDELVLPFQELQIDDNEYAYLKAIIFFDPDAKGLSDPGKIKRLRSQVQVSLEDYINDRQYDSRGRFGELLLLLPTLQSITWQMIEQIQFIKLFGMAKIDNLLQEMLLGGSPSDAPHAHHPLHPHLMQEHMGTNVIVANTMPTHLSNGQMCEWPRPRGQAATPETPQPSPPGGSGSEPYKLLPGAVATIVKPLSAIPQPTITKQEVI
rRNA inh HTS = inhibitors of bacterial rRNA selective over humanized ribosomes; E. coli WT GFP vs humanized-ribosome RFP mutants, fluorescence, 24 h; hits give low values; DMSO median 0, no signal -100; GFP signal change (wild-type ribosome), % (concentration not given with the values); actives 1.6% (n = 350,000); AID 720706;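 active = significant combined selectivity score with lowered wild-type GFP, culture density cut under 30%, mutant RFP and density less affected; inactive = any of these conditions unmet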; also: one replicate is shown; some compounds called inactive have numbers as strong as hits
E coli growth = inhibitors of Escherichia coli growth; OD600, 23 h; hits give low values; OD600 absorbance (concentration not given with the values); actives 0.21% (n = 330,000);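 active = OD600 absorbance below the run mean of sample wells minus 3.6 SD, in any replicate, cut at about 0.56 in these data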;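 also: stock transfer was 300 nL into about 60 µL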
MLL AF4-AF9 inh = blocks AF4 peptide binding to human AF9 | AID 651704 | P42568 | AlphaScreen, biotin-AF4 peptide binding to FLAG-AF9 | actives 0.47% (n = 350,000) | inhibition, % at 10 µM;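 active = every replicate reaching a set inhibition limit, whatever the replicate mean, cut at about 25% in these data; inconclusive = mean inhibition reaches that limit but some replicates miss it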;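 also: 0% = plate neutral control median and 100% = total signal loss; the record names both 10 and 1 µM as test concentration; the first replicate is given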
Vif A3G = inhibitors of Vif binding to APOBEC3G peptide, primary screen, biochemical, TR-FRET, GST-Vif 1-94, biotin-A3G peptide, dose response retest (AID 1117319); TR-FRET GST-Vif / biotin-A3G peptide binding; higher % means a stronger effect; test concentration not given here; strong numbers were not always called active; inhibition, %; hits with a dose series show IC50 in µM; actives 0.57% (n = 260,000);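 active = above the screen mean plus three standard deviations and confirmed in dose response; inconclusive = results disagree or hit not tested in dose response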;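 also: Vif residues 1-94 fused to GST binding biotinylated APOBEC3G peptide 110-148; 0% = full assay without inhibitor and 100% = GST in place of GST-Vif; retest series ran down from 100 µM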
rRNA inh HTS OD600 = further read-out of rRNA inh HTS, marked with its call; OD600 change, %; measured here: OD600 growth;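 optical density of the mix in the first replicate; 0 = DMSO median and -100 = no signal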
rRNA inh HTS RFP = further read-out of rRNA inh HTS, marked with its call; RFP signal change, %; measured here: RFP humanized mutant strains;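 first replicate; 0 = DMSO median and -100 = no signal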
Active calls of the source: *; i = inactive; ? = inconclusive; / = not tested or not shown; & = joins results of further samples.

entry | SMILES | ALR H2O2 inh | FGF22 binding | HNF4A DNA FP | rRNA inh HTS | rRNA inh HTS OD600 | rRNA inh HTS RFP | E coli growth | MLL AF4-AF9 inh | Vif A3G
1 | CCOC(=O)C(N)CSC1CC(=O)N(c2ccc(OC)cc2)C1=O (stereo not drawn) | -5 | i | -0.5 | 12 | 4 | 1.1 | 0.74 | -5.9 | /
2 | C[C@@H]1CCCCO[C@@H](CN(C)S(C)(=O)=O)[C@@H](C)CN([C@H](C)CO)C(=O)c2cc(NS(=O)(=O)c3ccccc3)ccc2O1 | / | i | / | 1 | -5 | 0.8 | / | 0.1 | /
3 | COc1ccc(Cl)cc1N1C(=O)CC(N2CCN(S(=O)(=O)c3ccccc3F)CC2)C1=O (stereo not drawn) | -2 | i | -4.1 | -11 | -28 | -0.1 | 0.7 | 0.2 | -7%
4 | Cc1oc2ccc(OC(=O)N3CCOCC3)cc2c1C(=O)OC(C)C | -28 | / | 0.9 | / | / | / | 0.71 | / | -5%
5 | CN(C)S(=O)(=O)c1cc(NC(=O)COC(=O)Cc2ccc(Br)cc2)ccc1Cl | -7 | / | 0.3 | / | / | / | 0.66 | / | ?
6 | CCCNC(=O)N(C)C[C@@H]1Oc2ncc(C3=CCCC3)cc2C(=O)N([C@H](C)CO)C[C@H]1C | / | i | / | -2 | 3 | -3.2 | / | -1.8 | /
7 | O=C(CSc1nnc(-c2ccccc2)n1-c1ccccc1)c1ccc[nH]1 | -30 | / | 1.2 | / | / | / | 0.73 | / | 23%
8 | CCO[C@@H]1OC(C(=O)Nc2ccccc2)=C[C@H](c2ccc3c(c2)OCO3)[C@H]1CCCO | 2 | i | 3.0 | -2 | -6 | -7.3 | / | 2.8&-3.0 | -5%
9 | COc1ccc2c3c(n(C)c2c1)[C@@H](CO)N(Cc1ccncc1)CC31CCN(C(=O)NC(C)C)CC1 | / | i | / | 2 | -9 | 0.6 | / | -4.8 | /
10 | CC(=O)N(c1cccc(C(F)(F)F)c1)c1nc(/C=C/C(=O)O)cs1 | -6 | i | -0.3 | 3 | 1 | 3.9 | 0.68 | 0.1 | /
11 | CN(C)Cc1cn(CC[C@H]2CC[C@H](NC(=O)Nc3ccc4c(c3)OCO4)[C@@H](CO)O2)nn1 | / | i | / | 2 | 2 | 0.8 | / | 1.7 | /
12 | CCC(C(=O)Nc1ccc2c(c1)OCCO2)n1c(=O)[nH]c2ccccc2c1=O (stereo not drawn) | -3 | i | 0.0 | 7 | 5 | 4.3 | 0.68 | 1.6 | /
13 | Cc1ccc(OCc2ccccc2C)c([N+](=O)[O-])n1 | / | i | -3.8 | -7 | -9 | -2.7 | 0.67 | -19 | /
14 | COc1ccc(C(=O)Nc2ccccc2C(=O)N(Cc2ccco2)C(C(N)=O)C(C)C)cc1 (stereo not drawn) | 1 | / | -7.5 | / | / | / | 0.71 | / | -18%&-2%
15 | CCS(=O)(=O)c1nc(S(=O)(=O)c2ccc(C)cc2)c(NCCCN2CCOCC2)s1 | 2 | i | -0.4 | 7 | 5 | -1.8 | 0.67 | 1.1 | 1%
16 | CO[C@@H]1CN(C)C(=O)c2cc(NC(=O)C3CCOCC3)ccc2OC[C@@H](C)N(Cc2ccc(F)cc2)C[C@H]1C | / | i | / | -7 | -8 | 1.0 | / | 0.2 | /
17 | CC1(C)CC(=O)C2=C(C1)NC(=O)CC2c1cc2c(cc1Br)OCO2 (stereo not drawn) | 13 | / | 0.5 | / | / | / | 0.69 | / | 16%
18 | C[C@@H]1CN([C@H](C)CO)C(=O)c2cc(NC(=O)C3CCCCC3)ccc2O[C@@H]1CN(C)Cc1ccc(Cl)c(Cl)c1 | / | i | / | -5 | -4 | 2.0 | / | 0.3 | /
19 | Cc1nn(CCO)c2ncc(C(=O)c3cc(F)ccc3O)cc12 | -21 | i | -0.8 | 1 | 2 | -0.5 | 0.69 | 1.8 | /
20 | CC1(C(=O)NCc2cccs2)Cc2c(-c3ccccc3)ccnc2O1 (stereo not drawn) | / | i | 0.0 | -2 | -12 | -5.3 | / | -9.7 | /
21 | CO[C@@H]1CN(C)C(=O)c2ccc(NC(=O)C3CC3)cc2OC[C@H](C)N(Cc2ccc(F)cc2)C[C@H]1C | / | i | / | -5 | -37 | 2.1 | / | 3.4 | /
22 | CCOC(=O)CC[C@H](NC(=O)Cn1cnc2c(NCc3ccccc3)ncnc21)C(=O)OCC | / | i | -3.2 | -2 | 3 | -2.8 | 0.65 | -0.5 | /
23 | CCN(CC(=O)Nc1cc(OC)ccc1OC)Cc1nc2ccccc2c(=O)[nH]1 | / | / | -0.2 | 2 | -6 | -1.9 | 0.71 | -0.1 | /
24 | O=C(N/N=C\c1ccccc1F)c1ccc(-c2ccccc2)cc1 | -11 | i | -2.6 | 5 | 4 | -0.9 | / | -2.8 | /
25 | C=CCSc1nnc(NC(=O)CCNC(=O)c2ccccc2Cl)s1 | / | i | 0.3 | -4 | -1 | -1.6 | / | -1.4 | /
26 | COc1ccc(N(CC(=O)NCc2ccc3c(c2)OCO3)S(=O)(=O)c2c(C)nn(C)c2C)cc1 | -3 | i | 0.6 | 1 | 9 | -1.1 | 0.76 | -9.4 | -2%
27 | CC1CCN(S(=O)(=O)c2ccc(C(=O)Nc3nnc(-c4ccco4)o3)cc2)CC1 | 9 | i | -1.3 | -35 | -52 | -6.0 | 0.69 | 5.2 | 15%
28 | Cc1cc(C)n2nc(C(=O)Nc3ccc(S(=O)(=O)N(C)C)cc3)nc2n1 | 2 | i | -4.5 | 2 | -3 | 16 | 0.66 | -11 | /
29 | CCn1cnc2c1c(=O)n(CC(=O)N1CCc3ccccc31)c(=O)n2Cc1ccccc1 | / | / | 4.9 | / | / | / | 0.69 | / | 0%
30 | C[C@H]1CN([C@@H](C)CO)C(=O)Cc2cc(NS(=O)(=O)c3ccc(Cl)cc3)ccc2O[C@@H]1CN(C)Cc1ccccc1 | / | i | / | -57 | -69 | -11 | / | 3.0 | /
31 | O=C(O)CCN1C(=O)C2C3CC(C2C1=O)C1C(c2ccccc2)c2sc(=O)[nH]c2SC31 (stereo not drawn) | 2 | i | -3.5 | 5 | 7 | -3.5 | 0.71 | -4.2 | 4%
32 | COc1ccc(N2C(=O)CSC2c2cccs2)cc1 (stereo not drawn) | 99* | / | 1.2 | / | / | / | 0.67 | / | -1%
33 | CC(C)CCOP(=O)(c1ccc(N(C)C)cc1)C(O)c1c(Cl)cccc1Cl (stereo not drawn) | / | i | -0.9 | -36 | -70 | 3.3 | 0.61 | 13 | -1%
34 | COc1cc(OC)cc(C(=O)OCn2nnc3ccccc3c2=O)c1 | -2 | i | -1.1 | 3 | 8 | -1.1 | 0.73 | 3.2 | -1%
35 | Cc1c(C2C(C#N)=C(N)OC3=C2C(=O)CCC3)cnn1C (stereo not drawn) | -20 | i | -1.2 | 9 | 11 | 2.2 | 0.64 | -4.6 | /
36 | Cc1ccc(C(C)NC(=O)C2CCCC2)cc1C (stereo not drawn) | 6 | i | 2.2 | 3 | 5 | -0.6 | 0.66 | -0.4 | 2%
37 | O=C(C[C@@H]1C=C[C@H](NC(=O)CC2CC2)[C@H](CO)O1)NCc1ccc(-c2ccccc2)cc1 | / | i | / | -4 | -11 | 1.3 | / | -2.5 | /
38 | O=C(COc1ccccc1)N1CCN(c2ncccn2)CC1 | -9 | i | -0.5 | 21 | 25 | 3.9 | 0.67 | 8.9 | 14%
39 | O=C(NC12CC3CC(CC(C3)C1)C2)c1ccccc1O | / | / | -2.0 | / | / | / | 0.71 | / | -11%
40 | COC(=O)c1ccc(NC(=O)COc2ccc3c(c2)OCO3)cc1 | 0 | i | 0.5 | 5 | 4 | 0.1 | 0.62 | -3.4 | /
41 | Cc1ccc(/C=N/n2c(-c3cccnc3)n[nH]c2=S)s1 | 76* | / | 1.0 | / | / | / | / | / | 1%
42 | CCOC(=O)C(C#N)C(c1cccnc1)c1c(C)[nH][nH]c1=O (stereo not drawn) | 56 | / | -2.0 | / | / | / | 0.68 | / | 5%
43 | Cc1cc(NC(=O)CSc2ccc3ccccc3c2)no1 | 99* | / | 0.7 | / | / | / | 0.79 | / | 4%
44 | O=C(NN=C1CCCC1)c1ccc([N+](=O)[O-])cc1 | 1 | i | -0.6 | 20 | 19 | 4.0 | 0.69 | -0.6 | 24%
45 | COc1ccc(NC(=O)CN2CCCC2c2cccs2)cc1S(=O)(=O)N1CCCCC1 (stereo not drawn) | -3 | i | 2.5 | / | / | / | 0.7 | 3.9 | 1%
46 | COc1cc2c(C(F)(F)F)c(-c3ccc(C#N)cc3)oc(=O)c2cc1OC | -2 | i | 2.8 | 2 | -4 | 8.1 | 0.7 | -2.0 | /
47 | O=C(NCc1nc2ccccc2[nH]1)C1=C[C@@H](c2ccccc2)C[C@@H](OCCCCO)O1 | -18 | i | -0.6 | -7 | -5 | 13 | / | -2.2&-6.7 | /
48 | CC(C)(C)OC(=O)N1CCNc2ccccc2C1 | / | / | 0.3 | / | / | / | 0.72 | / | -1%
49 | O=C(NCc1ccco1)C(c1ccncc1)N(C(=O)Cn1nnc2ccccc21)c1ccccc1 (stereo not drawn) | / | i | 1.1 | 6 | 4 | 0.0 | 0.7 | 0.7 | /
50 | CC(=O)n1c(-c2ccccc2)c(CO)c2ccccc21 | 21 | i | -2.5 | -2 | -9 | -3.1 | 0.79 | -6.0 | /
51 | OCC1CCCN1C(=S)Nc1ccccc1 (stereo not drawn) | -21 | / | 1.3 | / | / | / | 0.69 | / | -3%
52 | C[C@@H]1CN([C@H](C)CO)C(=O)c2cccc(N(C)C)c2O[C@@H]1CN(C)C(=O)Nc1ccc(F)cc1 | / | i | / | 0 | 2 | -1.3 | / | -2.7 | /
53 | O=C(NC1CC1)C1CCN(C2CCN(C(=O)CCOc3ccccc3)CC2)CC1 | -3 | i | 2.6 | 7 | 10 | 0.1 | 0.7 | -4.0 | 5%
54 | NC(=O)N[C@@H](Cc1c[nH]c2ccccc12)C(=O)OCC(=O)N1CCCCC1 | -3 | i | 2.3 | 21 | 15 | 1.6 | 0.68 | 0.1 | /
55 | CCN(CCCNS(=O)(=O)c1ccc2c(c1)CCN2C(C)=O)c1cccc(C)c1 | 97* | i | 0.7 | -8 | -3 | 13 | 0.73 | 2.9 | 4%
56 | COc1ccc(-c2noc3c2-c2nc(-c4ccccc4F)sc2CC3)cc1 | -3 | i | -2.5 | 14 | 24 | 10 | 0.71 | -1.4 | /

This is a subset; count on the stated rates, not on these rows.
